rRNA inh HTS: inhibitors of bacterial rRNA selective over humanized ribosomes. E. coli WT GFP vs humanized-ribosome RFP mutants, fluorescence, 24 h; active compounds read low; DMSO median 0, no signal -100. GFP signal change (wild-type ribosome), % (no concentration beside the values). hit rate 1.6% among 350,000;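 active = significant combined selectivity score with lowered wild-type GFP, culture density cut under 30%, mutant RFP and density less affected; inactive = any of these conditions unmet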; note: one replicate is shown; some compounds called inactive have numbers as strong as hits
FGF22 binding: FGF22 (human) thermal shift binding; Q9HCT0; recombinant FGF22 thermal shift, SYPRO orange fluorescence; percent of sucrose octasulfate shift, DMSO zero; calls only at 9.99 µM; hit rate 1.5% among 340,000;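 active = melting point raised past a set limit in the mean and every replicate; three in four hits are not shown here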
Target sequence (Q9HCT0 whole entry, looked up): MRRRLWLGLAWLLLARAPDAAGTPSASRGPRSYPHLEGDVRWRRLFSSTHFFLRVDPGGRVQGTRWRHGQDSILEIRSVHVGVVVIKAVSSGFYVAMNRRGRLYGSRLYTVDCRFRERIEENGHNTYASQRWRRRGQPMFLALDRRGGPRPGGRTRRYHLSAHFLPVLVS
MLL AF4-AF9 inh: blocks AF4 peptide binding to human AF9. P42568. AID 651704. AlphaScreen, biotin-AF4 peptide binding to FLAG-AF9. hit rate 0.47% among 350,000. inhibition, % at 10 µM;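 active = every replicate reaching a set inhibition limit, whatever the replicate mean, cut at about 25% in these data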;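 note: 0% = plate neutral control median and 100% = total signal loss; the record names both 10 and 1 µM as test concentration; the first replicate is given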
Target sequence (P42568 whole entry, looked up): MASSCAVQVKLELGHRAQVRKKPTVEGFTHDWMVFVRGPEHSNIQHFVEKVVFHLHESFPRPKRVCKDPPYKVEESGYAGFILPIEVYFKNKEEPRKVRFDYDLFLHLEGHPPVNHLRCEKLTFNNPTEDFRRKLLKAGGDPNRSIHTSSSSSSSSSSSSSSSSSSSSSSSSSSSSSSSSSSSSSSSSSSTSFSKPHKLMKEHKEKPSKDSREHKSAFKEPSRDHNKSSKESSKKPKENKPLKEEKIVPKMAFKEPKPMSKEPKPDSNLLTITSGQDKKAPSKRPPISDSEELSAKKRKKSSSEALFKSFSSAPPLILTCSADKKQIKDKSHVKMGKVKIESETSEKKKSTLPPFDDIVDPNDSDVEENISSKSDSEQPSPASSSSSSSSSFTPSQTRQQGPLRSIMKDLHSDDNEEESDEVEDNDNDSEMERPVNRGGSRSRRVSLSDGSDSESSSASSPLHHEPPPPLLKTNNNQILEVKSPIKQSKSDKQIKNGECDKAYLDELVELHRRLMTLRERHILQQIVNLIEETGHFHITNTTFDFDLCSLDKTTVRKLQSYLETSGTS
rRNA inh HTS OD600: further read-out of rRNA inh HTS, marked with its call; OD600 change, %; measured here: OD600 growth;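 optical density of the mix in the first replicate; 0 = DMSO median and -100 = no signal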
rRNA inh HTS RFP: recorded beside rRNA inh HTS, whose call it bears; RFP signal change, %; measured here: RFP humanized mutant strains;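 first replicate; 0 = DMSO median and -100 = no signal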
* = called active by the depositor; i = inactive; / = not tested or not shown; & = joins results of further samples.

SMILES	rRNA inh HTS	rRNA inh HTS OD600	rRNA inh HTS RFP	FGF22 binding	MLL AF4-AF9 inh
C[C@@H]1CN([C@@H](C)CO)C(=O)c2cc(NC(=O)Nc3ccc(F)cc3)ccc2O[C@@H](C)CCCCO[C@@H]1CN(C)Cc1ccc(C(F)(F)F)cc1	0	-5	-0.8	i	0.7
C[C@H](CO)N1C[C@H](C)[C@H](CN(C)C(=O)C2CCC2)Oc2cc(C#Cc3ccncc3)ccc2S1(=O)=O	-6	-14	-0.8	i	1.1
O=C(NC1CCC1)[C@@H]1[C@@H](CO)[C@@H]2Cn3c(ccc(/C=C/c4ccccc4)c3=O)[C@@H]2N1Cc1ccncc1	-10	-8	7.4	i	-7.8
C[C@@H]1CN([C@H](C)CO)C(=O)c2cc(N(C)C)ccc2O[C@@H](C)CCCCO[C@@H]1CN(C)Cc1ccccc1	5	-2	-0.5	i	8.3
COc1ccc(NC(=O)N(C)C[C@@H]2OCc3ccccc3-c3c(n(C)c4ccccc34)C(=O)N([C@@H](C)CO)C[C@H]2C)cc1	2	-2	-0.7	i	2.9
C[C@@H]1CN([C@H](C)CO)C(=O)c2cccc(NS(=O)(=O)c3ccc(F)cc3)c2O[C@H]1CN(C)S(=O)(=O)c1cccs1	0	2	-0.9	i	-0.1
COc1ccc2c3c(n(C)c2c1)[C@@H](CO)N(C(=O)c1ccncc1)CC31CN(C)C1	3	6	1.0	i	0.0
C[C@@H]1CN([C@@H](C)CO)C(=O)c2cc(NS(=O)(=O)c3ccc(F)cc3)ccc2O[C@@H](C)CCCCO[C@@H]1CN(C)S(=O)(=O)c1cccs1	3	-1	8.9	i	-2.2
C[C@@H]1CN([C@@H](C)CO)C(=O)CCCn2nncc2CO[C@@H]1CN(C)C(=O)Nc1ccc(C(F)(F)F)cc1	-56&-16	-77&-11	-17&4.2	i	-0.5&1.0
O=C(NC(c1ccc(Cl)cc1)c1cnccn1)C1CCN(Cc2ccc(Oc3ccccc3)cc2)CC1 (centres undefined)	-43	-74	-13	i	3.1
C[C@H]1CN([C@@H](C)CO)C(=O)c2cc(NC(=O)C3CC3)ccc2O[C@H]1CN(C)S(C)(=O)=O	3	2	1.1	i	-2.3
Cc1noc(C)c1S(=O)(=O)N(C)C[C@H]1Oc2ccc(NS(=O)(=O)c3ccc(F)cc3)cc2CC(=O)N([C@H](C)CO)C[C@H]1C	-2	-6	-2.3	i	-0.9
CCC(=O)N1CCCCN2[C@H](C1)[C@H](c1ccc(C#Cc3cccnc3)cc1)[C@@H]2CO	-3	0	2.5	i	1.7
CCOC(=O)C1=CCC2C(=O)N(Cc3ccccc3)C(=O)C12 (centres undefined)	0	3	-4.3	i	-1.2
CCCNC(=O)N(C)C[C@H]1Oc2cc(C3=CCCC3)ccc2S(=O)(=O)N([C@H](C)CO)C[C@@H]1C	-3	-13	-3.7	i	-2.0
COc1cccc(-c2cnc3c(c2)C(=O)N([C@@H](C)CO)C[C@@H](C)[C@@H](CN(C)Cc2cccnc2)O3)c1	-1	-5	-1.5	i	-2.1
COCC#Cc1cnc2c(c1)C(=O)N([C@@H](C)CO)C[C@H](C)[C@H](CN(C)C(=O)c1ccc(F)cc1)O2	-1	-4	-0.8	i	-3.8
C/C=C/c1ccc([C@H]2[C@@H](CO)N(c3ncc(CC)s3)[C@H]2C#N)cc1	-1	-22	24	i	1.5
CC1(Cc2cccc(F)c2)C(=O)Nc2ccc(OC(F)(F)F)cc21 (centres undefined)	-8	-25	9.5	i	-3.0
O=C(C[C@@H]1CC[C@@H]2[C@H](COC[C@H](O)CN2S(=O)(=O)c2cccc(Cl)c2)O1)Nc1ccc(-c2ccccc2)cc1	3	4	4.8	i	-1.1
O=C(c1ccccc1F)N1C[C@H]2[C@@H](c3ccccc31)[C@H](CO)N2C(=O)C1CCCC1	-2	0	-1.4	i	-1.3
CCOC(=O)[C@]12CCCC=C1N(CCC1=CCCCC1)C(=O)[C@H](CC(=O)N1CCOCC1)C2	-2	-2	2.8	/	-0.6
C[C@H](CO)N1C[C@H](C)[C@H](CN(C)C(=O)c2ccccn2)Oc2cc(C#Cc3ccccc3)ccc2S1(=O)=O	-9	-25	9.3	i	1.2
C[C@@H]1CN([C@@H](C)CO)C(=O)c2cccc(NC(=O)c3nc4ccccc4s3)c2O[C@H]1CN(C)S(=O)(=O)c1cccs1	-5	5	1.2	i	-1.7
CCC(=O)Nc1ccc2c(c1)OC[C@H](C)N(Cc1cccc(F)c1)C[C@@H](C)[C@H](OC)CN(C)C2=O	-10	-8	4.8	i	3.1
(more compounds)
SMILES	rRNA inh HTS	rRNA inh HTS OD600	rRNA inh HTS RFP	FGF22 binding	MLL AF4-AF9 inh
C[C@@H]1CN([C@H](C)CO)C(=O)c2cccc(NC(=O)C3CCCCC3)c2O[C@@H]1CN(C)Cc1ccc(Oc2ccccc2)cc1	-2	-5	3.1	i	6.8
CCC(=O)N1[C@@H](CO)[C@@H](c2ccccc2)C12CN(Cc1ccccc1Cl)C2	-2	7	3.3	i	0.9
O=C(N[C@@H]1C=C[C@H](CC(=O)N2CCC(Cc3ccccc3)CC2)O[C@H]1CO)c1cnccn1	-6	-2	-0.7	i	1.8
C[C@@H]1CCCCO[C@@H](CN(C)S(=O)(=O)c2cn(C)cn2)[C@@H](C)CN([C@H](C)CO)C(=O)c2cc(NC(=O)Nc3ccc4c(c3)OCO4)ccc2O1	5	14	-2.6	i	0.2
C[C@@H]1CN([C@H](C)CO)C(=O)c2cc(C#CCN(C)C)cnc2O[C@@H]1CN(C)Cc1ccc(C(=O)O)cc1	5	6	0.8	i	-13
COc1ccc(NC(=O)Nc2ccc3c(c2)C(=O)N([C@@H](C)CO)C[C@H](C)[C@H](CN(C)C(=O)NC2CCCCC2)OCCCC[C@@H](C)O3)cc1	3	4	-2.8	i	-2.2
C[C@@H]1CN([C@@H](C)CO)C(=O)c2cc(C#CCc3ccccc3)cnc2O[C@H]1CN(C)C(=O)C1CCOCC1	5	8	0.0	i	0.0
CC1=C(C(=O)N(C(C)C)C(C)C)CC(CC(=O)NCc2cccs2)C(=O)N1CCCN1CCCC1=O (centres undefined)	10	18	-0.4	i	0.8
COCC(=O)N(C)C[C@H]1Oc2cc(C#Cc3cccnc3)ccc2S(=O)(=O)N([C@@H](C)CO)C[C@@H]1C	1	12	-0.8	i	-1.5
COc1cccc(C(=O)Nc2ccc3c(c2)C(=O)N(C)[C@H]2CC[C@@H](CC(=O)N[C@H](C)c4ccccc4)O[C@H]2CO3)c1	-9	-6	3.1	i	-1.5
CNS(=O)(=O)c1ccc(CNC[C@H]2O[C@@H](n3ccc(N)nc3=O)[C@H](O)[C@@H]2O)cc1	0	16	0.0	i	1.8
COCC#Cc1cnc2c(c1)C(=O)N([C@H](C)CO)C[C@@H](C)[C@@H](CN(C)C(=O)c1cccnc1)O2	7	4	-2.7	i	-5.4
CC(C)NC(=O)N(C)C[C@@H]1Oc2c(NS(=O)(=O)c3cn(C)cn3)cccc2C(=O)N([C@H](C)CO)C[C@@H]1C	3	0	-2.4	i	-4.0
COCCNC(=O)C[C@H]1CC[C@@H]2[C@H](COC[C@@H](O)CN2C(=O)Nc2ccc3c(c2)OCO3)O1	3	4	-4.2	i	0.3
C[C@@H]1CCCCO[C@@H](CN(C)S(=O)(=O)c2cccs2)[C@H](C)CN([C@H](C)CO)C(=O)c2cc(NC(=O)Nc3ccc(F)cc3)ccc2O1	4	11	4.6	i	-4.3
CCOC(=O)C1(C)CCCN(C(=O)c2ccc(-c3ccccc3)cc2)C1 (centres undefined)	-16	-42	-5.9	i	0.3
CCS(=O)(=O)Nc1ccc2c(c1)C(=O)N(C)C[C@H](OC)[C@@H](C)CN(Cc1nccs1)[C@@H](C)CO2	0	2	0.2	i	-1.8
COc1ccc(S(=O)(=O)Nc2ccc3c(c2)CC(=O)N([C@@H](C)CO)C[C@@H](C)[C@H](CN(C)Cc2ccc(Cl)c(Cl)c2)O3)cc1	3	1	2.9	i	-0.1
CCc1nc2c(OCc3ccc(OC(F)F)cc3)cccn2c1N(C)C(=O)c1ccc(OC)cc1	3	3	15	i	2.5
COc1ccc(C#Cc2cnc3c(c2)C(=O)N([C@@H](C)CO)C[C@H](C)[C@@H](CN(C)C(=O)CC2CC2)O3)cc1	-8	-15	6.4	i	1.8
CN(C)c1ccc2c(c1)[C@H]1C[C@H](CC(=O)NCCc3ccccc3)O[C@@H](CO)[C@H]1O2	3	9	5.2	i	-7.0
C[C@@H]1CN([C@H](C)CO)C(=O)c2cc(NS(=O)(=O)c3ccc(Cl)cc3)ccc2O[C@@H](C)CCCCO[C@@H]1CN(C)C(=O)Cc1ccccc1	1	0	-0.5	i	-1.3
COc1cccc(C(NC(C)=O)c2nc(-c3cccc(C(C)C)c3)cs2)c1 (centres undefined)	-2	-26	-4.7	i	-0.5
CCCCCCCCC(c1nc2cc(C)c(C)cc2[nH]1)n1c(=O)c(-c2ccccc2Br)nc2ccccc21 (centres undefined)	10	19	0.3	i	-3.4
O=C(O)C[C@H]1CC[C@H](NC(=O)c2ccccc2F)[C@H](CO)O1	5	15	-3.6	i	0.3

Compound profiles, from the list above. Order of values: rRNA inh HTS | rRNA inh HTS OD600 | rRNA inh HTS RFP | FGF22 binding | MLL AF4-AF9 inh
Record of CCC(=O)Nc1ccc2c(c1)OC[C@H](C)N(Cc1cccc(F)c1)C[C@@H](C)[C@H](OC)CN(C)C2=O : -10 | -8 | 4.8 | i | 3.1
Record of COc1ccc(NC(=O)Nc2ccc3c(c2)C(=O)N([C@@H](C)CO)C[C@H](C)[C@H](CN(C)C(=O)NC2CCCCC2)OCCCC[C@@H](C)O3)cc1 : 3 | 4 | -2.8 | i | -2.2
Record of COc1ccc2c3c(n(C)c2c1)[C@@H](CO)N(C(=O)c1ccncc1)CC31CN(C)C1 : 3 | 6 | 1.0 | i | 0.0
Record of C[C@@H]1CN([C@@H](C)CO)C(=O)c2cc(C#CCc3ccccc3)cnc2O[C@H]1CN(C)C(=O)C1CCOCC1 : 5 | 8 | 0.0 | i | 0.0
Record of O=C(NC(c1ccc(Cl)cc1)c1cnccn1)C1CCN(Cc2ccc(Oc3ccccc3)cc2)CC1 (centres undefined) : -43 | -74 | -13 | i | 3.1

Rewritten field by field: entries from further up
C[C@@H]1CN([C@H](C)CO)C(=O)c2cccc(NC(=O)C3CCCCC3)c2O[C@@H]1CN(C)Cc1ccc(Oc2ccccc2)cc1
  rRNA inh HTS: -2; rRNA inh HTS OD600: -5; rRNA inh HTS RFP: 3.1; FGF22 binding: i; MLL AF4-AF9 inh: 6.8

CCC(=O)N1[C@@H](CO)[C@@H](c2ccccc2)C12CN(Cc1ccccc1Cl)C2
  rRNA inh HTS: -2; rRNA inh HTS OD600: 7; rRNA inh HTS RFP: 3.3; FGF22 binding: i; MLL AF4-AF9 inh: 0.9

(listing goes on)
SMILES	rRNA inh HTS	rRNA inh HTS OD600	rRNA inh HTS RFP	FGF22 binding	MLL AF4-AF9 inh
C[C@@H]1CN([C@@H](C)CO)C(=O)c2cc(C#CCc3ccccc3)cnc2O[C@@H]1CN(C)Cc1ccc(C(=O)O)cc1	7	3	-2.7	i	2.8
c1cnc2c(-c3cccc4nccn34)cccc2c1	1	-3	1.1	i	-1.2
CN1OC[C@@H]2CN(Cc3cc(Cl)cc(Cl)c3)[C@H](c3cccc(-c4ccccc4)c3)C[C@@H]21	9	10	0.0	i	-0.6
CC(=O)Nc1ccc(C(=O)N2CCCCC2c2cc(C(=O)Nc3ccccc3Cl)no2)cc1 (centres undefined)	-2	-18	2.2	i	2.6
CCCCNC(=O)c1cnc(Cc2c[nH]c3ccccc23)c(I)c1	7	9	0.4	i	0.5
CCc1nc2ccc(C(=O)N3CCN(S(=O)(=O)CC)CC3)cn2c1N(C)CCC(C)C	-1	-2	-1.2	i	-1.8
CC(=O)Nc1ccc2c(c1)C(=O)N(C)[C@@H]1CC[C@@H](CC(=O)Nc3cn(C)nc3C)O[C@H]1CO2	1	-1	-2.1	i	0.0
COc1ccc(C(NC(=O)C2CCN(CCCOc3ccccc3)CC2)c2ccccn2)cc1 (centres undefined)	19	16	10	i	0.1
O=C(C[C@H]1C[C@@H]2c3cc(NS(=O)(=O)c4ccc(F)cc4)ccc3O[C@@H]2[C@@H](CO)O1)NCCc1ccccc1	3	-11	2.2	i	0.6
C[C@@H]1CN([C@H](C)CO)C(=O)c2cc(NC(=O)NC3CCCCC3)ccc2O[C@@H]1CN(C)C(=O)Nc1ccc2c(c1)OCO2	-4	-3	-1.2	i	1.3
CC(=O)N1CCCCN2[C@H](CO)[C@@H](c3ccc(Br)cc3)[C@H]2C1	1	-6	1.5	i	-3.5
O=C(NCC[C@@H]1CC[C@H](NS(=O)(=O)c2cccc(F)c2)[C@@H](CO)O1)C1CCCC1	2	4	-0.8	i	-1.6
CCC(=O)Nc1ccc2c(c1)OC[C@@H](C)N(Cc1nccs1)C[C@H](C)[C@H](OC)CN(C)C2=O	-4	-2	0.1	i	-1.2
CO[C@@H]1CN(C)C(=O)c2cc(NC(=O)NC(C)C)ccc2OC[C@H](C)N(Cc2ccccn2)C[C@H]1C	2	2	-1.5	i	-2.7
O=C(C[C@@H]1CC[C@H](NC(=O)Nc2ccc3c(c2)OCO3)[C@H](CO)O1)NCc1ccc(F)cc1	-1	5	-1.2	i	0.5

A portion of the library; rates above refer to the full screens.
